D2 agonist: human D2 receptor agonism in beta-arrestin assay. P14416. DiscoveRx PathHunter D2 beta-arrestin, luminescence, 90 min; 100% = 57 uM dopamine signal. activation, % (concentration not given with the values). 360,000 compounds, 0.084% hits; in the data active = activation above about 40%; inconclusive = about 15% to 40%; inactive = below about 15%; also: the text of the record calls up to 30% inactive
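Agonist mode: compounds alone added to overnight-plated D2 PathHunter cells for 90 min at 37 C, with 57 uM final dopamine (EC100) defining full response. Beta-arrestin recruitment detected by chemiluminescent reagent, read after 1 h at ambient temperature.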
TRPML1 blocker: inhibitors of human TRPML1 channel | Q9GZU1 | TRPML1-inducible cells, Ca2+ dye fluorescence, FDSS; hits give low values; inhibition of EC80 agonist-evoked calcium signal | activity change, negative = inhibition, % (no concentration beside the values) | 390,000 compounds, 0.02% hits | AID 624415; in the data active means activity change below about -50%; inconclusive means about -30% to -50%; inactive means above about -30%;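 also: stimulus is agonist 54-4 at its EC80 concentration; % is scaled to controls: 0 for no effect and ±100 for the full control effect; compound concentration not given in the record; the text of the record puts the active cut at -80%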
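TRPML1-DL cells, Tet-induced overnight (~16 h, 37 °C) at 1,500 cells/well, were loaded with Ca8 no-wash dye plus quencher for 45-90 min at room temperature. Compounds were pinned during FDSS kinetic reading; agonist 54-4 at EC80 (4 uM final) then added.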
TRPML1 agonist: agonists of human TRPML1 channel | activation, % (no concentration beside the values) | 410,000 compounds, 0.12% hits | TRPML1-expressing cells, Ca2+ dye fluorescence, FDSS; host cell line not named in the record; reference of the full effect not given here | Q9GZU1; in the data active = activation above about 50%; inconclusive = about 30% to 50%; inactive = below about 30%; also: 0% is about no effect; the text of the record puts the active cut at 80%
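Kinetic FDSS Ca2+ read in Tet-induced TRPML1-DL cells (ABD Ca8 dye plus quencher, 45-90 min RT loading): baseline, then compound, then 110 s agonist window; EC80 agonist 54-4 at 4uM final added afterwards for a 110 s antagonist window.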
D2 potentiator: human D2 receptor positive allosteric modulation | DiscoveRx D2 beta-arrestin cells, luminescence, 90 min; 100% = 57 uM dopamine signal | potentiation, % (test concentration not listed) | P14416 | 360,000 compounds, 0.23% hits; active = potentiation of 50% or more; inconclusive = 30% to 50%; inactive = 30% or less;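 also: compound concentration not given in the record; tested on top of an EC20 dose of dopamine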
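PathHunter beta-arrestin assay in DiscoveRx D2 cells. Compounds were added with an EC20 of dopamine (50 nM final) for 90 min at 37 deg C. Luminescence was read 1 h after detection reagent, with 57 uM dopamine as the EC100 control.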
Six1-Eya2 blk: Six1/Eya2 interaction inhibition | 360,000 compounds, 0.56% hits | Q15475+O00167 | AlphaScreen GST-Six1/His-Eya2 binding, biochemical; hits give low values; control for the full effect not named in the record | activity change, % (concentration not given with the values); in the data active = activity change below about -65%; inconclusive = about -30% to -65%; inactive = above about -30%; also: % is scaled to controls: 0 for no effect and ±100 for the full control effect
Target sequence (O00167 whole entry, looked up): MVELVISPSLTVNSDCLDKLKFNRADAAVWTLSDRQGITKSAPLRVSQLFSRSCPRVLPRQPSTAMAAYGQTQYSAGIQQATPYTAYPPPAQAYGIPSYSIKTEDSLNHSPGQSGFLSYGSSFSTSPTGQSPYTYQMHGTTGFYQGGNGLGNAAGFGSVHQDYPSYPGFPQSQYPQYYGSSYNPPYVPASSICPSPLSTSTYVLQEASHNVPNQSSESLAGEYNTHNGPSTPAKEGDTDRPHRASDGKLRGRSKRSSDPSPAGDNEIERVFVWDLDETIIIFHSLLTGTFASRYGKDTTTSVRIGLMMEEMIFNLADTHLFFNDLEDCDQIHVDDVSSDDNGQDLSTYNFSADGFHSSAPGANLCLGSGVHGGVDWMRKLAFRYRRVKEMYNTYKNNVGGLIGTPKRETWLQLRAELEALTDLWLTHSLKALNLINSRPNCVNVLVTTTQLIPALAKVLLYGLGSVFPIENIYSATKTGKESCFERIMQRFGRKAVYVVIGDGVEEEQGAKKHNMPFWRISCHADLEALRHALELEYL
Target sequence (Q15475 whole entry, looked up): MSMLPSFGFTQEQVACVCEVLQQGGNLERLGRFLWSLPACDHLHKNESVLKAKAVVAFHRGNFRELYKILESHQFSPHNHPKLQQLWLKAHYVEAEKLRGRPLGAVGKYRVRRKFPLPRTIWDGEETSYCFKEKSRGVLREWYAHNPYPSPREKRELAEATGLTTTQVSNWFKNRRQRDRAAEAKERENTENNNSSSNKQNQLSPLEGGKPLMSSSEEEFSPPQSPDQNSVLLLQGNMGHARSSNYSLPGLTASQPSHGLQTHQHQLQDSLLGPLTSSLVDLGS
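AlphaScreen with GST-Six1 and His-Eya2 (5X mix: 250 nM and 500 nM), glutathione donor and nickel acceptor beads; buffer 50 mM Tris pH 8.0, 300 mM NaCl, 1 mM TCEP; 1 h at 37 C in the dark.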
PINK1 expr mod: changes PINK1 expression; Potency, µM (titrated, usually from 76.6 µM), for the others: top-dose activation (PINK1 increase), most hits filed as activators; PINK1 immunofluorescence, high-content cytometry, 24 h; AID 624263; 410,000 compounds, 0.2% hits; active = well fitted activation curve with a large enough effect; inconclusive = small, poorly fitted or top-dose-only effect; inactive = flat fitted curve, though single readings scatter; cell line not stated here;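 also: potency is read from the fitted curve at half-maximal effect; % of control where 0% means no effect; nearly all actives have a fitted effect of over 65% in size; a mitochondrial uncoupler was the plate control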
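Measures PINK1 amount and localization on or inside mitochondria by immunofluorescence. Stable cells get compounds at 5 concentrations for 24 hours before fixation and staining; CCCP controls included.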
Starred values were filed as active, the others as inactive; ? = inconclusive; . = no result given; [ ] = remark or other dose. The order is random (roughly 1% active in at least one column).

SMILES	D2 agonist	TRPML1 blocker	TRPML1 agonist	D2 potentiator	Six1-Eya2 blk	PINK1 expr mod
O=C(COc1ccccc1)Nc1c2c(nn1-c1ccc(F)cc1)CS(=O)(=O)C2	2.5	36	0.2	-9	4	3.7%
COc1ccc(-c2nnc(SCC(=O)Oc3c(C)cccc3C)o2)cc1OC	.	-5	0.4	.	.	1.9%
O=S(=O)(Nc1ccc2c(c1)OCCO2)c1cccc2nsnc12	-1.4	5	0.8	-4	-3	-1.5%
Cc1cc(C)nc(NC(=O)CCCC(=O)O)c1	-1.4	8	0.7	-7	10	-0.8%
COc1ccc(NC(=O)C2CCN(S(=O)(=O)c3cccs3)CC2)cc1OC	-0.9	-14	-1.4	-6	2	1.0%
CCOc1ccccc1CNC(=O)CN1C(=O)c2cccnc2Oc2ccc(C)cc21	.	7	4.8	.	.	1.5%
O=C(NCc1ccc(F)cc1)C1CCN(C(=O)c2cnn(-c3ccccc3)c2-n2cccc2)CC1	.	14	-0.9	.	.	0.2%
CCCCNC(=O)c1cnn2c(C)c(Cc3c(F)cccc3Cl)c(C)nc12	.	-17	-0.8	.	.	7.8%
CCN(CC)C(=O)[C@H]1CC(CC(=O)NCCC2=CCCCC2)C(=O)N2CCc3c([nH]c4ccccc34)[C@]12C (stereo partly specified)	-2.4	-10	3.6	-3	-2	1.5%
Cc1cc(C)nc(NC(=O)c2ccc(C)o2)n1	1.8	4	0.3	-32	-3	-0.5%
O=c1c2c3c(sc2nc2n1CCCC2)CCCCC3	0.5	3	-0.4	-14	-6	-2.1%
Cc1nc(NC(=O)C(C)(C)C)sc1C(=O)Cn1cc(CCCC#N)nn1	.	.	0.0	.	4	1.0%
C=CCn1ccc(=NC=C(C#N)C#N)c2ccccc21	-4.3	29	10	-12	-2	1.1%
CC(C)C(=O)N(c1ccc2oc(=O)sc2c1)S(=O)(=O)c1ccccc1	-0.4	-16	0.9	6	-5	-4.3%[38.3 µM]
CN(Cc1ccccc1)C(=O)c1ccc(NC(=O)Cc2ccc(NC(=O)C3CCN(S(=O)(=O)c4cccc([N+](=O)[O-])c4)CC3)cc2)cc1	3.9	-11	-0.4	3	-1	1.5%
CCn1ccnc1CN(C)Cc1cn(-c2ccccc2)nc1-c1ccc(OC)cc1F	-1.4	25	1.9	-24	-17	-0.8%
CS(=O)(=O)c1ncc(N(Cc2ccccc2)Cc2ccco2)c(C(=O)Nc2cccc(C(F)(F)F)c2)n1	.	16	1.3	.	.	1.1%
CCCS(=O)(=O)NC(=O)C1(C)CCN(C(=O)C2(c3ccc(Cl)cc3)CCCC2)C1 (stereo unspecified)	-4.5	.	-0.5	1	0	0.7%
Cc1cc(C)c(Cn2cnc3nc4c(cc3c2=O)CCCC4)c(C)c1	.	12	1.7	.	.	1.0%
CC(C)c1ccc2nc(N)sc2c1	0.6	22	1.4	-6	-1	2.6%
CC(=O)Nc1ccc(S(=O)(=O)Oc2cccc(/C=C3\SC(N)=NC3=O)c2)cc1	1.3	5	1.1	-6	-6	6.9%
O=C1NN(c2ccccc2)C(=O)/C1=C\c1coc2ccc(O)cc2c1=O	-1.8	-6	0.0	-11	-5	11%
CSc1cccc(N2CC(C(=O)Nc3cccc(S(=O)(=O)N4CCCC4)c3)CC2=O)c1 (stereo unspecified)	-0.7	1	0.7	-22	-14	-1.1%
Cc1nc(SCC(=O)Nn2c(-c3ccccc3)nc3ccccc3c2=O)n[nH]1	-3.8	-21	-0.3	10	0	2.3%
Cc1cc(C)c2c(N)c(S(=O)c3ccc(C(C)(C)C)cc3)sc2n1 (stereo unspecified)	-2.3	-4	-0.4	-10	-9	0.4%[38.3 µM]
Cc1[nH]n(-c2ccccc2)c(=O)c1/C=N/N(C)c1ccccc1	9.9	2	-0.4	74*	-19	1.8%
O=C(Nc1cc(Cl)ccc1Cl)C1CC(=O)N(c2ccccc2)C1 (stereo unspecified)	-2.0	4	0.1	-5	-15	14%
O=C(CCn1cccc1)Nc1nccs1	-0.9	-3	-1.0	7	-1	0.2%
COC(=O)CSc1nnc(-c2ccc3c(c2)OCO3)n1C	-0.6	0	1.0	-18	-3	-4.7%
COc1cc(/C=C/C(=O)OCC(=O)NC(=O)NC(C)C)cc(OC)c1OC	-1.7	-4	2.8	-7	-11	-0.5%
CCC(C)(C)NC(=O)CN(CC1CCCO1)C(=O)CCC(=O)Nc1nccs1 (stereo unspecified)	-1.1	-27	0.7	-9	18	0.0%
COc1ccccc1OCC(=O)Nc1cc(Cl)ccc1N1CCCCC1	1.2	49	3.6	-6	13	5.3%
CC(C)c1ccc(C2c3[nH]c4ccccc4c3C[C@H]3C(=O)N(c4ccccc4C(=O)N4CCC[C@H]4C(=O)O)C(=O)N23)cc1 (stereo partly specified)	2.6	.	.	-6	-4	0.4%
CC(C)OP(=O)(c1ccc(N(C)C)cc1)C(O)c1ccccc1F (stereo unspecified)	-3.5	-18	-0.4	-8	1	-0.9%[38.3 µM]
Cn1c(C(=O)NCc2cccc(Cl)c2)cc2oc3ccccc3c21	.	4	-0.5	.	.	1.7%
COCC1CCN(C(=O)C2CCN(c3nc(-c4ccccc4)nc4c3CCC4)CC2)C1 (stereo unspecified)	1.8	3	1.2	10	0	2.7%
CC(C)c1ccc(NC(=O)CSc2ncc3c(n2)-c2ccccc2N(C)S3(=O)=O)cc1	.	-16	1.9	.	.	4.6%
CN1CCN(S(=O)(=O)c2ccc3[nH]c(=O)oc3c2)CC1	-2.2	14	0.4	-7	9	2.2%
CC(=O)Nc1ccc(NC(=O)C2(C)Cc3c(-c4cccc(C(N)=O)c4)ccnc3O2)cc1 (stereo unspecified)	-0.3	.	-0.8	-1	-1	0.3%
Cn1cc(S(=O)(=O)N2CCCCC2)cc1C(=O)N1CCN(c2ccccc2F)CC1	.	-3	-0.1	.	.	1.4%
c1ccc(CN2CCOCC2)nc1	0.6	-13	-0.2	-1	-18	3.9%
COc1ccccc1C(=O)NCCC(=O)NCCc1ccccc1	1.5	8	-0.5	13	-2	4.2%
COC(=O)c1ccccc1NS(=O)(=O)c1cc2c3c(c1)CC(=O)N3CCC2	.	-19	0.1	.	.	1.2%
Cc1ccc(Nc2nnc(SCC(=O)c3c(N)n(C4CC4)c(=O)[nH]c3=O)s2)cc1C	6.7	18	1.1	2	-19	7.0%
O=C(Nc1ccc2c(c1)OCCO2)C1c2ccccc2OCC(=O)N1CCCN1CCOCC1 (stereo unspecified)	.	.	-0.6	.	3	-0.5%
CCC(C)NC(=O)CCS(=O)(=O)c1ccc2c(c1)n(C)c(=O)c(=O)n2C (stereo unspecified)	-3.8	-12	-0.3	-10	2	0.4%
COC(=O)c1c(C)oc(C)c1S(=O)(=O)NCc1ccc(Cl)cc1	-4.2	-7	-1.4	-12	-1	2.8%
N#Cc1ccccc1S(=O)(=O)N1CCN(CC(=O)Nc2ccnn2C2CCCC2)CC1	-1.0	-1	0.1	4	6	-1.0%
Cn1c(=O)c2c(nc(NCc3ccc4c(c3)OCO4)n2Cc2ccccc2F)n(C)c1=O	3.3	-5	1.9	-4	-13	8.3%
Cc1cccc(N2C(=O)CS/C2=N\NC(=O)c2cccnc2)c1C	3.5	-7	0.1	-5	3	-1.5%
COCCNC(=O)C(OC(=O)c1cc2oc(C)cc2n1C)C(C)C (stereo unspecified)	-2.8	2	0.0	-13	-2	-4.2%
CC12CCC(C(=O)N3CCCc4ccccc43)(OC1=O)C2(C)C (stereo unspecified)	-5.1	-7	-0.7	-21	5	-2.0%
Cc1nc(C)c(-c2ccc(SCC(=O)Nc3ccccc3F)nn2)s1	.	?	2.0	.	.	-1.1%
OC(COc1ccc(Cl)cc1Cl)CN1CCc2ccccc2C1 (stereo unspecified)	0.2	3	0.6	-31	-1	6.6%
CC(=O)c1c(C)[nH]c(C(=O)COC(=O)c2cccs2)c1C	1.2	-11	1.6	-4	2	-0.7%
COc1cc(Cl)ccc1OCc1cc(C(=O)N(C)Cc2cccc3cnccc23)no1	11	6	1.1	-20	-8	2.4%
BrC(/C=C\c1ccccc1)=N/Nc1nc(N2CCOCC2)nc(N2CCOCC2)n1	-6.3	-5	0.3	-3	-4	-0.1%
Cc1cc(NC(=O)CSc2nnc(-c3cccc(F)c3)n2N)no1	6.5	-10	1.9	1	-4	0.1%
c1ccc(CCNCCCOc2cccc3ccccc23)cc1	-7.2	0	1.1	-27	-5	-1.5%
COCCn1c(SCC(=O)Nc2ccc3c(c2)OCCO3)nc2ccccc2c1=O	-1.5	9	-0.3	-23	0	-0.9%
(cont.)
SMILES	D2 agonist	TRPML1 blocker	TRPML1 agonist	D2 potentiator	Six1-Eya2 blk	PINK1 expr mod
O=C(OCC#Cc1c(COC(=O)c2ccccc2)nnn1Cc1ccccc1)c1ccccc1	-3.7	-18	0.8	-14	20	-0.6%
CC(C)c1onc(C(=O)N2CCCCC2)c1[N+](=O)[O-]	-2.5	-2	-0.1	-7	12	4.3%
CCN(CC)CCNC(=O)c1[nH]c2ccccc2c1Sc1ccc(Cl)cc1	.	-19	0.6	.	.	3.0%
CO/N=C1\CCn2c1c(C)c1ccccc12	0.5	0	1.8	-3	-14	-0.9%
CCCS(=O)(=O)c1c(S(=O)(=O)CCC)c2ccccn2c1C(=O)OC	-3.2	8	-0.7	-8	-2	8.6%[38.3 µM]
COC(=O)c1cc(=O)c2cccc(OC)c2[nH]1	-2.6	15	-0.3	-22	2	-0.2%
C#CCN(C#N)c1nc(NCC)nc(NC(C)C)n1	-0.2	-6	0.1	-1	27	2.8%[38.3 µM]
O=C(CSC(=S)N1CCSCC1)c1ccccc1	3.9	-7	0.8	-3	-4	-0.3%
COc1cccc(NC(=O)COC(=O)c2nc(Cl)ccc2Cl)c1	0.1	14	-0.9	-16	-3	0.5%
CC1(C)CCC(=O)N2CC[C@H]3C[C@H](OC(=O)Nc4ccc5c(c4)OCO5)C[C@@H]1[C@H]32	-1.6	-17	-0.6	-6	-7	-0.1%
O=C(NCc1ccccc1)C12CN(Cc3ccccc3)CC1C(c1ccc([N+](=O)[O-])cc1)=NO2 (stereo unspecified)	-5.0	3	1.2	-5	-27	0.2%
O=C(C[C@H]1C/C=C\C[C@H](NC(=O)OCC2c3ccccc3-c3ccccc32)C(=O)OC[C@H]2CCCN2C1=O)NCCO	-9.3	-4	0.1	-3	9	4.8%
Cc1nc(-c2ccccc2)sc1C(N)=O	-1.4	-4	0.0	-7	-3	-1.3%

Complete entries, looked up by structure.
COc1cccc(NC(=O)COC(=O)c2nc(Cl)ccc2Cl)c1 as listed: D2 agonist = 0.1; TRPML1 blocker = 14; TRPML1 agonist = -0.9; D2 potentiator = -16; Six1-Eya2 blk = -3; PINK1 expr mod = 0.5%
O=C(NCc1ccccc1)C12CN(Cc3ccccc3)CC1C(c1ccc([N+](=O)[O-])cc1)=NO2 (stereo unspecified) as listed: D2 agonist = -5.0; TRPML1 blocker = 3; TRPML1 agonist = 1.2; D2 potentiator = -5; Six1-Eya2 blk = -27; PINK1 expr mod = 0.2%

Bioassay records as filed in PubChem.
